CSC inhib = cancer stem cell inhibition. cancer stem cell-like cells viability, luminescence. inhibition, % at 7.5 µM. 1.1% of 300,000 active;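 active = mean at 75% or more and at least half the replicates too; inconclusive = mean and replicates disagree; tested in HMLE shEcad cells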;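 note: 0% = median of negative and 100% = median of positive control wells; the first replicate is given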
Rce1 inhib = yeast Ras-converting enzyme inhibition; Q03530; yeast membranes, quenched prenylated peptide cleavage fluorescence; calls only; 0.27% of 290,000 active;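 active = fall in fluorescence gain of 50% or more versus controls, with final raw signal at or below 3038400; inconclusive = same 50% fall but final raw signal above 3038400; inactive = fall in fluorescence gain under 50%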;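 note: plate controls were neutral control wells for no effect and wells lacking membranes for full effect; tested at 10 µM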
Yeast UUG start = modulators of start codon recognition fidelity in yeast; 0.13% of 350,000 active; AID 602363; activity score, % at 18.7 µM; S. cerevisiae UUG-firefly luciferase reporter, luminescence/redox ratio;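 active = replicate mean at a twofold rise or more, about +100% in these data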;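 note: firefly luciferase made from a UUG start codon reports start codon fidelity; reporter light over untreated wells divided by growth signal over untreated wells; some hits fall short of that in this replicate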
Env fusion inh = HIV envelope-mediated fusion inhibition; HeLa-JRFL Env/CEM21 cell fusion, luciferase; inhibition, % at 12.3 µM; 1.1% of 360,000 active; AID 651610;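 active = mean replicate inhibition score of at least 50 and every replicate individually at or above 50; inconclusive = only one of the two criteria met; inactive = mean below 50 and not all replicates reaching 50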;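 note: 0% = plate neutral controls and 100% = maraviroc near 300 nM; one replicate is shown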
PABP FP inh = PABP-poly(A) binding inhibition | P11940 | PABP-poly(A) RNA binding, fluorescence polarization | inhibition, % at 35 µM | 1% of 290,000 active;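 active = 50% or more with normal probe brightness, or confirmed in later tests; inconclusive = above 50% with abnormal brightness, or retests that disagree; inactive = below 50% or failed in later tests; about a fifth of its hits are not listed in these tables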;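 note: calls also rest on retests at 20 µM and on dose response follow-up; controls were probe without protein and protein plus probe with vehicle; some compounds called inactive have numbers as strong as hits; many hits fall short of the cut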
Target sequence (P11940 whole entry, looked up): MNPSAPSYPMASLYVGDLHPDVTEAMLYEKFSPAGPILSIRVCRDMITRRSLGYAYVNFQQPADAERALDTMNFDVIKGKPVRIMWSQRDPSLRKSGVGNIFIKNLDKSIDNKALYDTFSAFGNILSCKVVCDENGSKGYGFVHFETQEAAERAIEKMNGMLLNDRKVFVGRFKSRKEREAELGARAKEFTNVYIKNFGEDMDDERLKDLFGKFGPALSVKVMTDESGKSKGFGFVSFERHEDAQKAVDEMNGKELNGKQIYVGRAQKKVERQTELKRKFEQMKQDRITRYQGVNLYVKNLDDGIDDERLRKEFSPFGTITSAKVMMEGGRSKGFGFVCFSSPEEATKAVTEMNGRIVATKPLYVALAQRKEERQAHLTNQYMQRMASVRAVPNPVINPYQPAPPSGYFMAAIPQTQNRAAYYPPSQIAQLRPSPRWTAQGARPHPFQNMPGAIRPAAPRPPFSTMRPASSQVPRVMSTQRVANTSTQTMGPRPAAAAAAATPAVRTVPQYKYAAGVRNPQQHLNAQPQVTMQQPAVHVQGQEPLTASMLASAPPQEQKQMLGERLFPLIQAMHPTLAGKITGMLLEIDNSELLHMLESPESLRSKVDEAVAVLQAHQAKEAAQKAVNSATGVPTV
eIF4H inh = inhibitors of RNA binding by human eIF4H | eIF4H fluorescence polarization binding assay | inhibition, % at 35 µM | 0.94% of 290,000 active | Q15056;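 active = 50% or more with normal probe brightness, or confirmed in later tests; inconclusive = above 50% with abnormal brightness, or retests that disagree; inactive = below 50% or failed in later tests; about a fifth of its hits are not listed in these tables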;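 note: calls also rest on retests at 20 µM and on dose response follow-up; 0% = protein and probe with vehicle and 100% = probe without protein; strong numbers were not always called active; many hits fall short of the cut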
MT1-MMP act inh = blocks activation of human MT1-MMP; P50281; HT1080 RFP-PRO-GFP cells, GFP/RFP ratio fluorescence, overnight; percent of plate control window, DMSO zero; GFP/RFP ratio change, % at 20 µM; 0.061% of 360,000 active; AID 651647;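 active = GFP/RFP ratio change of at least 30% with cell ATP level not reduced by more than half and red fluorescence within 50% of control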; note: strong numbers were not always called active
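system = RFP-PRO-GFP reporter HT1080 cells | dosing = 20 µM single dose, 1% DMSO | timing = overnight cell settling, then overnight compound exposure, 37 °C, 5% CO2 | read-out basis = GFP/RFP fluorescence ratio | controls = DMSO and RFP-L50D-GFP cell wells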
MT1-MMP act inh RFP = recorded beside MT1-MMP act inh, whose call it bears; RFP signal change, %; measured here: RFP expression control read;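 0 = vehicle wells; hits needed this value within 50% of zero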
Starred values were filed as active, the others as inactive; i = inactive; ? = inconclusive; nt = no result given; + = active, no number; & = joins results of further samples.

SMILES	CSC inhib	Rce1 inhib	Yeast UUG start	Env fusion inh	PABP FP inh	eIF4H inh	MT1-MMP act inh	MT1-MMP act inh RFP
N#Cc1c(/N=C/c2cccnc2)sc2c1CCCC2	-7	i	-16	-2	-8	-7	1	1
CC(C)/C=C1\CC/C(=C\c2cccnc2)C1=O	18	i	nt	-46	7	7	4	0
CC1(C)Cc2c(c(-c3ccccc3)nc(N3CCOCC3)c2C(N)=O)CO1	-11	i	-13	nt	4	-6	7	4
CC/C(=N/Nc1ccc(Cl)cc1)c1cnnc(SC)n1	6	i	nt	nt	-19	4	2	3
O=C1CC(c2ccc(O)cc2)Oc2ccccc21 (stereo not given)	nt	nt	16	-66	nt	nt	6	-1
CCOC(=O)C1CCN(C(=O)CCN2C(=O)C3C4C=CC(C4)C3C2=O)CC1 (stereo not given)	-6	i	-17	-28	-12	-11	3	2
CCCCOC(=O)Nc1ccc(OC)cc1S(=O)(=O)N1CCOCC1	1	i	-4	nt	0	-1	3	5
Clc1ccc(C[n+]2cc(-c3ccccc3)n3c2CCCCC3)c(Cl)c1	1	i	nt	17	-2	-4	-21	-29
COc1ccc(Nc2nc(-c3ccccc3)nc3ccccc23)c(OC)c1	12	i	-6	1	4	0	1	-1
O=C(COn1nnc2ccc(C(F)(F)F)cc21)Nc1c(Cl)cccc1Cl	5	i	nt	-75	11	3	-3	3
Cc1ccccc1-n1c(=O)c2ccccc2n2nnnc12	-3	i	-12	nt	3	4	-2	-1
CC1CN(C(=O)c2cccc(NS(=O)(=O)c3ccc(Br)cc3)c2)CC(C)O1 (stereo not given)	nt	nt	-4	3	nt	nt	-2	-4
CCN1CCN(C(=O)CN(c2cccc(Br)c2)S(=O)(=O)c2ccccc2)CC1	5	i	nt	13	2	-6	-2	2
O=C(NCCC1CCCCN1S(=O)(=O)c1ccc(F)cc1)C(=O)NC1CCCC1 (stereo not given)	5	i	nt	-11	nt	nt	2	-3
O=C(NCC(=O)N1CCCC(C(F)(F)F)C1)c1cccs1 (stereo not given)	nt	nt	-15	-25	nt	nt	1	0
O=C(NCc1ccc2c(c1)OCO2)c1ccc(S(=O)(=O)NCC2CCCO2)cc1 (stereo not given)	5	i	-1	nt	2	-12	3	0
CCS(=O)(=O)NCCc1ccc(OC)c(OC)c1	-21	i	nt	-18	-2	-7	2	7
COc1ccccc1N1CC(C(=O)OC(C)C(=O)N2CCCc3ccccc32)CC1=O (stereo not given)	-3	i	-2	15	-5	2	-2	2
CC1Cc2ccccc2N1S(=O)(=O)c1cnc(Cl)c(Br)c1 (stereo not given)	14	i	-10	-2	0	-10	-2	-3
Cn1cc(C(=O)NC2CCCCCC2)c(=O)c2cc(S(=O)(=O)N3CCCC3)ccc21	-8	i	nt	12	4	-1	0	0
CC1CCN(Cc2c(C(=O)N/N=C/c3ccccc3O)nnn2-c2nonc2N)CC1	nt	i	-17	63*	9	10	3	3
CCOC(=O)c1c(NC(=O)COC(=O)CCOc2ccc(OCC)cc2)sc(C(=O)N(C)C)c1C	-3	i	2	nt	nt	nt	3	6
COc1ccccc1-c1nnc(NC(=O)CSc2nncn2C)s1	-13	i	nt	-40	18	2	5	2
COC(=O)N(C)C[C@@H]1OCc2cn(nn2)CCCC(=O)N([C@@H](C)CO)C[C@H]1C	nt	nt	-5&6	-1	nt	nt	1	3
O=C(Nc1ccc(Cl)c(Cl)c1)c1ccccc1	11	nt	-15	4	nt	nt	0	-5
Next part
SMILES	CSC inhib	Rce1 inhib	Yeast UUG start	Env fusion inh	PABP FP inh	eIF4H inh	MT1-MMP act inh	MT1-MMP act inh RFP
NS(=O)(=O)c1ccc(NC(=O)COC(=O)c2ccc(Cl)cc2[N+](=O)[O-])cc1	-7	i	nt	14	-4	2	2	0
COC(=O)NC1(C(F)(F)F)C(=O)Nc2c1c(=O)n(C)c(=O)n2C (stereo not given)	-9	i	-9	11	-4	-13	2	3
O=C(CCNS(=O)(=O)c1c(Cl)cccc1Cl)OCC(=O)c1ccccc1F	-11	i	-14	15	4	3	-3	2
O=C(CN1CCCCCC1)Nc1cccc(Br)c1	3	i	-6	-4	0	-6	-2	-2
CN(C)C(CNC(=O)c1cccc(S(=O)(=O)N(C)C)c1)c1ccccc1 (stereo not given)	4	i	-15	nt	1	12	0	3
COc1cc(C=O)ccc1OCCCOc1ccc([N+](=O)[O-])cc1	-15	i	nt	25	-3	-4	2	-3
CCC(=O)N1CCN(c2ccccc2NC(=O)Cc2ccc(Cl)cc2)CC1	2	i	8	nt	8	3	-3	0
Fc1ccc(Nc2ccnc(Nc3ccc(F)cc3)n2)cc1	36	i	nt	9	40	-4	-10	-20
O=C(COC(=O)CCC(=O)c1cccs1)Nc1ccc(Cl)cn1	-8	i	nt	10	11	12	-4	4
O=C(N/N=C/c1ccc(Br)o1)/C(=C/c1ccc([N+](=O)[O-])cc1)NC(=O)c1ccccc1	0	i	-6	nt	-2	-6	8	2
Cc1oc(-c2ccccc2)[n+]([O-])c1C	-22	i	-15	-63	5	-2	3	11
NCCCC[C@H]1CNC(=S)N1CC1CCCCC1	-14	i	-26	-6	-10	-7	5	2
O=C(CSc1nncc2ccccc12)Nc1cccc(C(=O)O)c1	-9	i	nt	-4	4	0	-1	-2
CC(C)Cc1n[nH]c(=O)c2c1nnn2Cc1ccccc1F	-4	i	-13	29	3	2	2	2
CC1(Cc2ccc(F)cc2)C(=O)Nc2c(Cl)cccc21 (stereo not given)	nt	nt	-5	0	nt	nt	0	1
Cc1cc(=O)n2nc(N3CCC(C(=O)NCCc4ccc(Cl)cc4)CC3)sc2n1	-11	i	-11	-6	-1	-10	6	5
CC(=O)c1ccc(Sc2ccccn2)c([N+](=O)[O-])c1	17	i	-2	2	-8	1	4	-2
CCS(=O)(=O)N1CCC(C(=O)NCc2ccccn2)CC1	-16	i	-35	nt	-2	0	-1	4
CSc1nc(=S)n(Cc2ccccc2)c(C)c1C(C)=O	-12	i	nt	27	0	0	-1	1
O=C1OCC/C1=C\c1ccccc1	-17	i	-12	25	-5	-4	-3	-1
CC(C)(C)C1CCC(=NNC(=O)C(=O)NCc2cccnc2)CC1 (stereo not given)	-10	i	-24	3	-15	-2	-1	0
Cc1nnc(N2C(=O)C(=O)/C(=C(/O)c3ccc4c(c3)OCCO4)C2c2ccc(F)cc2)s1 (stereo not given)	-7	i	-17	4	2	-3	-1	5
Cc1ccc(OC(=O)c2cccc([N+](=O)[O-])c2)c(-n2nc3ccccc3n2)c1	15	i	nt	-146	-11	-9	1	7
C/C=C/C(=O)OCC(=O)Nc1ccc(F)cc1Cl	-2	i	-16	-34	-6	-6	-3	5
O=C(NC1CCCC1)C(c1ccsc1)N(CCc1ccccc1)C(=O)Cc1cccs1 (stereo not given)	-4	i	nt	?	2	2	-4	0
(list continues)
SMILES	CSC inhib	Rce1 inhib	Yeast UUG start	Env fusion inh	PABP FP inh	eIF4H inh	MT1-MMP act inh	MT1-MMP act inh RFP
CCN(CC(=O)Nc1c(F)cccc1F)C(=O)COc1ccc2c(c1)CCC2	-9	i	-3	i	nt	nt	-2	2
Cc1ccc(-c2ccc(SCC(=O)Nc3nonc3C)nn2)cc1	7	i	-17	-23	6	7	-6	-17
COc1ccc(-n2c(SCC(=O)NCCC(C)C)nc3ccsc3c2=O)cc1	-9	i	-16	5	-9	-6	-2	4
C/C(=N\NC(=O)CSc1nc(C)cc(C)n1)c1cccc([N+](=O)[O-])c1	-16	i	nt	-17	-7	-2	0	0
CCn1c(CCNC(=O)c2ccc(OC)cc2)nnc1SCc1ccc(Cl)cc1Cl	4	i	-5	15	9	3	0	-6
O=C(Cc1ncc(C(F)(F)F)cc1Cl)NCCc1ccccc1	9	i	4	15	12	-4	1	1
CCCCN=C1C([N+](=O)[O-])=CC=C2C1=NC1(CCCCC1)N2O	-8	i	nt	13	6	-3	7	-1
CCOC(=O)C1CCCN(c2c(N3CCC(N4CCCCC4)CC3)c(=O)c2=O)C1 (stereo not given)	5	i	-3	-18	2	-7	0	5
O=C(O)CC1=C(Nc2ccccc2)C(=O)N(c2ccccc2)C1c1ccc(Br)cc1 (stereo not given)	10	i	nt	10	3	-4	-3	-3
CCOc1c(Cl)cc(CNCC(C)C)cc1Cl	-4	i	-14	-49	nt	nt	3	0
CN(C)c1ccc(-c2csc(C(O)(c3ccccc3)C(F)(F)F)n2)cc1 (stereo not given)	nt	nt	-7	-14	nt	nt	-5	-11
COc1cccc(CNc2nc(NCC3CC3)nc3ccsc23)c1	nt	nt	3	25	nt	nt	9	-18
CC1CC(=S)Nc2ccccc2S1 (stereo not given)	-12	i	-28	-377	4	-14	0	1
CC(=O)Nc1cc(-n2cnnn2)ccc1C	-8	i	-18	-8	1	-12	5	5
Nc1c(/C=C2/C=CC(=O)C(O)=C2)c(=O)nc2sc(CC(=O)N3CCOCC3)nn12	nt	nt	-26	5	nt	nt	-14	9
O=C(CNC(=O)Cc1ccc(Cl)cc1)NCc1ccco1	0	i	nt	-19	-6	6	1	4
Cc1ccc(Nc2cc(C)nc3ncnn23)c(Cl)c1	nt	i	-7	-31	2	-1	8	-4
C=CCC(=O)N1CCCC(C(=O)c2ccc(Cl)cc2)C1 (stereo not given)	-11	i	-14	17	-4	-12	-2	0
COC(=O)c1cc(C)sc1NC(=O)c1ccco1	-8	i	-32	-10	-9	3	-1	-5
COc1cccc(-n2c(=O)c3ccccc3n(CC(=O)NCC3CCCO3)c2=O)c1 (stereo not given)	-9	i	-2	2	3	-2	3	0
O=C(COc1ccccc1Cl)Nc1ccc(CN2CCOCC2)cc1	2	i	0	nt	5	-12	9	-4
O=C(O)c1ccc(NC2=C/C(=N/S(=O)(=O)c3cccs3)c3ccccc3C2=O)cc1	nt	nt	-32	18	nt	nt	5	-23
CC(C)c1ccc(C(=O)NC(=S)NCc2cccnc2)cc1	-8	i	nt	8	6	-2	2	-9
CCOC(=O)c1cnc(SCC(=O)N2CCOCC2)nc1N	12	i	nt	3	7	6	-3	1
O=C(CSc1ccc2nnc(-c3ccncc3)n2n1)Nc1ccc2c(c1)OCO2	7	i	-8	-4	1	-8	0	3
The results go on:
SMILES	CSC inhib	Rce1 inhib	Yeast UUG start	Env fusion inh	PABP FP inh	eIF4H inh	MT1-MMP act inh	MT1-MMP act inh RFP
CC1(Oc2ccccc2-c2ccno2)CCN(Cc2ccc(-c3ccccc3)o2)C1 (stereo not given)	nt	nt	-10	37	nt	nt	-8	-2
Cc1cc(C)c2c(c1)-c1cc(C)nn1C(c1ccc3c(c1)OCO3)N2 (stereo not given)	39	+	-8	-94	-1	3	4	5
CC(C)=CCN1CCN(Cc2cccnc2)CC1CCO (stereo not given)	-10	i	nt	-35	-12	0	4	1
COc1ccc2c(c1)NC(=O)CC(c1ccccc1)=N2	7	i	1	-132	-3	-1	-1	-2
CCOc1cc(CC(=O)N[C@@H](CC(C)C)c2ccccc2N2CCCCC2)ccc1C(=O)O	20	i	-9	12	6	-10	-1	4
Cc1cc(C)n2nc(C(=O)NC3CCCc4ccccc43)nc2n1 (stereo not given)	-15	i	-16	-8	-8	-9	-3	1
COC(=O)c1cccc(C23CC4(C2)[C@H](CN(Cc2ccc(-c5ccccc5)cc2)[C@@H]4c2ccccc2)C3c2ccc(Cl)nc2)c1 (stereo not given in full)	9	i	-11	-39	-5	-10	3	-8
CCCCOc1ccc(S(=O)(=O)NC(=O)C2(C)CCN2C(=O)CCc2ccccc2)cc1 (stereo not given)	nt	nt	-5	24	nt	nt	3	1
O=C(NN1C(=O)NC2(CCCCC2)C1=O)c1cccs1	0	nt	-13	nt	nt	nt	-3	1

Source: PubChem
